PKD1 kinase inh: PKD1 (human) kinase inhibition | Q15139 | PKD1 kinase fluorescence polarization assay | inhibition, %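 (about 10 µM by stock and volumes)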 | 200,000 tested, 0.056% active;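 active = inhibition of 50% or more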;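 note: controls were vehicle for no effect and a reference inhibitor for full effect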
HSV augment: increases HSV replication in cells; HSV replication augmentation in cells, fold increase; maximum fold increase; 220,000 tested, 0.005% active; AID 1956;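 active = peak rise of 1.5-fold or more in the series; tested in PC3 cells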;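 note: first round at 10 µM; read as green reporter fluorescence; hits show the peak of a series up to 25 µM; 1 = signal of infected wells without compound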
GALR2 ag: agonists of human galanin receptor 2 (GALR2); 140,000 tested, 0.48% active; O43603; GALR2-expressing cells, agonist activation read-out; activation, %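 (tested at 5 µM)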;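 active = above mean plus 3 SD of all compounds, about 5% in these data, not always enough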;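 note: 0% = vehicle buffer wells and 100% = reference agonist at full effect; tested in CHO reporter cells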
Target sequence (O43603 whole entry, looked up): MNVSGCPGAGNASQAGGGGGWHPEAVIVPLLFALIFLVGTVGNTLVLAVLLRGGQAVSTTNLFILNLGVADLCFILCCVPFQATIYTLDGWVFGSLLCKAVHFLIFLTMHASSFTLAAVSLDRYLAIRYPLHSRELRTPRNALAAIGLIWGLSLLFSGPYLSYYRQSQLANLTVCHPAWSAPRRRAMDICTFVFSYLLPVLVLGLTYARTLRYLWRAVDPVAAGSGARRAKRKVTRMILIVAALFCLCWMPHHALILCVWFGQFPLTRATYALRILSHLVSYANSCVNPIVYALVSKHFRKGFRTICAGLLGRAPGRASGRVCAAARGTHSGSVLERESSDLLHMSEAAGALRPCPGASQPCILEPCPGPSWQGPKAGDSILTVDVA
Insulin prom inh: TRM-6 insulin promoter activity inhibition. TRM-6 cells (human fetal islet line), insulin promoter-eGFP reporter, imaging; reporter expression induced with tamoxifen. inhibition, % at 2 µM. 130,000 tested, 0.9% active. AID 1273;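 active = inhibition above the mean plus 3 SD, with well images judged a real hit on visual review, cut at about 60% in these data, passing the limit was not always enough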
RGS16-Gao: RGS16-Galphao interaction regulator (human) | O15492+P09471 | bead-based flow cytometry RGS16-Galphao binding, fluorescence; actives lie on both sides | binding response (% of control), % at 10 µM | 220,000 tested, 0.38% active | AID 1441;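 active = below 25% or above 175%, edge rows of some plates excepted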;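 note: Galphao activated by GDP with aluminum fluoride before binding; 100% = wells without compound and 0% = beads without RGS; some results beyond the cut were filed as inactive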
Target sequence (O15492 whole entry, looked up): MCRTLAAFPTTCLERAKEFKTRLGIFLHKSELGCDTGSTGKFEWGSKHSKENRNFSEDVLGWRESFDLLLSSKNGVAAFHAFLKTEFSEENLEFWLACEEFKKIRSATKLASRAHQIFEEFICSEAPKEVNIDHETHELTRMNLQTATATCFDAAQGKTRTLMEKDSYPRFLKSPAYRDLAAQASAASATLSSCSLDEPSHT
Target sequence (P09471 whole entry, looked up): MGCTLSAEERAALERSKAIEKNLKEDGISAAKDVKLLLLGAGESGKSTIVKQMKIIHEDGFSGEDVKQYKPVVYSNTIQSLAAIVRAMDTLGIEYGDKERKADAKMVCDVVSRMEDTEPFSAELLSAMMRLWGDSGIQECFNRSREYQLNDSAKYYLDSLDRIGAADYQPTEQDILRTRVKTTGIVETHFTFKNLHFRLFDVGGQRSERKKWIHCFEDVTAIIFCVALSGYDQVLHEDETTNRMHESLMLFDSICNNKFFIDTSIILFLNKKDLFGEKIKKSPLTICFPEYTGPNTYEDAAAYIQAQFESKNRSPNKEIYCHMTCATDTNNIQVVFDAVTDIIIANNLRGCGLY
Insulin prom inh cell count: further read-out of Insulin prom inh, marked with its call; normalized cell count, %; measured here: cell count, toxicity; reference of the scale not given here;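 cells exposed to compound for 48 h; stained nuclei by imaging scaled within each plate; lower means fewer cells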
HSV augment primary fold: further read-out of HSV augment, marked with its call; fold increase; compound at 10 µM; measured here: primary screen fold increase 10 uM; tested in PC3 cells;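 GFP signal in the first replicate; 1 = infected wells without compound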
An asterisk follows results filed as active; i = inactive; / = not tested or not shown.

SMILES | PKD1 kinase inh | HSV augment | HSV augment primary fold | GALR2 ag | Insulin prom inh | Insulin prom inh cell count | RGS16-Gao
COc1ccc(/C=C/C2=NC(=C\N(C)C)/C(=O)O2)cc1 | -21 | i | 0.98 | 2.1 | -107 | 98 | 104
Cc1cc(C)n2cnnc2n1 | / | i | 1.2 | / | / | / | 99
Cc1ccccc1NC(=O)NCCCN1CCCC1 | 1 | i | 0.77 | -0.3 | 0 | 125 | 93
COc1ccccc1NS(=O)(=O)c1cc(NC(=O)c2cc3ccccc3oc2=O)ccc1C | -8 | i | 0.84 | 0.0 | -9 | 128 | 115
CCN(CC)C(=O)CSc1nc(-c2ccccc2)ccc1C#N | 2 | i | 0.96 | / | / | / | 103
O=C(O)c1ccc(/C=N/N2CCN(C3c4ccccc4-c4ccccc43)CC2)cc1 | / | i | 1.1 | / | / | / | 122
COc1ccc(/C(C)=N/NC(=O)c2cc(-c3cccnc3)nc3ccccc23)cc1 | -12 | i | 0.82 | -1.2 | 40 | 101 | 99
O=c1c2ccccc2nc(-c2ccoc2)n1CCc1ccccc1 | 2 | i | 0.81 | 1.6 | 50 | 100 | 105
COc1cc(C(=O)COC(=O)Cc2cnc3sccn23)cc(OC)c1OC | -11 | / | / | -0.6 | / | / | 96
Cc1ccc(NS(=O)(=O)c2cc(NC(=O)c3cc(=O)[nH]c(=O)[nH]3)ccc2Cl)c(C)c1 | / | i | 1.1 | / | / | / | 84
O=S1(=O)C=C(Oc2ccc(F)cc2)c2ccccc21 | -2 | i | 0.99 | 1.8 | 44 | 105 | 96
COC(=O)CSc1ncnc2c1cnn2-c1ccc(C)cc1C | 2 | i | 0.93 | / | 49 | 93 | 103
CC1(C)Cc2c(c(N3CCOCC3)nc3sc4c(NCc5ccccc5)nnnc4c23)CS1 | -2 | i | 0.92 | 0.4 | 0 | 88 | 100
CC1=C(C(=O)Nc2ccccn2)C(c2ccccc2)n2ncnc2N1 (centres undefined) | 6 | i | 1 | -1.6 | -9 | 108 | 96
COCCn1c(SCC(=O)N2CCCc3ccccc32)nc2ccccc2c1=O | -2 | i | 0.9 | -1.0 | 36 | 56 | 107
O=C(Nc1cccc(-c2nc3ncccc3o2)c1)c1sc2ccccc2c1Cl | -4 | i | 1 | -2.1 | 13 | 89 | 102
Cc1cc(=O)oc(C)c1C(=O)NCCNC(=O)c1c(C)cc(=O)oc1C | 12 | i | 1 | -0.3 | / | / | 99
COc1ccc(-c2csc(Nc3ccc(O)cc3)n2)cc1 | -2 | i | 0.78 | / | / | / | 112
CSc1nc2c(c(=O)[nH]c(=O)n2C)n1C/C=C(\C)Cl | -6 | i | 0.76 | 0.3 | -15 | 95 | 100
Brc1cccc(OCCSc2ncccn2)c1 | 1 | i | 1.2 | / | / | / | 98
CSc1nc(O)cc(=O)n1-c1ccc(F)cc1 | 5 | i | 0.8 | / | / | / | 93
Cc1nnsc1Sc1ccccn1 | 3 | i | 0.98 | / | -8 | 109 | 107
CCSc1nnc(NC(=O)c2ccco2)s1 | -7 | i | 1.2 | 0.3 | -49 | 101 | 87
CS(=O)(=O)N1CCc2cc(-c3csc(NC(=O)Cc4ccccc4)n3)ccc21 | 6 | i | 1.1 | -1.5 | -194 | 85 | 103
Cc1cc(C)c2c(CC(=O)NCCc3ccccc3)coc2c1 | -3 | i | 0.93 | / | -120 | 57 | 92
Nc1ccc(-c2nc3ccc(N)cc3[nH]2)cc1 | 4 | i | 0.87 | / | / | / | 99
O=C(Nc1cccc(C(F)(F)F)c1)N(Cc1ccc(Cl)cc1)CC(O)C(F)(F)F (centres undefined) | -5 | i | 0.89 | -1.8 | 4 | 137 | 102
CCOC(=O)c1nc(N)sc1C(=O)OCC | 4 | i | 1.1 | -2.2 | 0 | 95 | 101
COc1ccc(C(=O)Nc2nc3cc4c(cc3s2)OCCO4)c(OC)c1 | / | i | 0.86 | / | / | / | 102
COc1ccc([N+](=O)[O-])cc1CSc1ccccn1 | -6 | i | 1.1 | / | / | / | 103
CCOC(=O)c1cc2c(=O)[nH]c(C(Cl)(Cl)Cl)nc2o1 | -6 | i | 0.93 | / | 27 | 110 | 103
COc1cc(Cl)cc(/C=C/c2ccc3ccccc3n2)c1OC(C)=O | 10 | i | 1.3 | -0.9 | 27 | 166 | 107
CC(/C=C/c1ccc2c(c1)OCO2)=N\NC(=O)C(O)c1ccccc1 (centres undefined) | / | i | 1 | / | / | / | 94
C=CCN1CC2CC3(COc4cc(C)cc(C)c4)C=CC2(O3)C1=O (centres undefined) | 3 | i | 0.9 | -3.7 | / | / | 101
S=C(c1nc2ccccc2[nH]1)N1CCOCC1 | -4 | i | 0.92 | -1.6 | / | / | 100
COC(=O)c1ccc2c(=O)n(CCCCCC(=O)O)c(=O)[nH]c2c1 | -7 | i | 1.1 | -3.6 | 36 | 110 | 101

Brought forward from above: 7 entries, followed by the next part.
SMILES | PKD1 kinase inh | HSV augment | HSV augment primary fold | GALR2 ag | Insulin prom inh | Insulin prom inh cell count | RGS16-Gao
COc1ccc([N+](=O)[O-])cc1CSc1ccccn1 | -6 | i | 1.1 | / | / | / | 103
CCOC(=O)c1cc2c(=O)[nH]c(C(Cl)(Cl)Cl)nc2o1 | -6 | i | 0.93 | / | 27 | 110 | 103
COc1cc(Cl)cc(/C=C/c2ccc3ccccc3n2)c1OC(C)=O | 10 | i | 1.3 | -0.9 | 27 | 166 | 107
CC(/C=C/c1ccc2c(c1)OCO2)=N\NC(=O)C(O)c1ccccc1 (centres undefined) | / | i | 1 | / | / | / | 94
C=CCN1CC2CC3(COc4cc(C)cc(C)c4)C=CC2(O3)C1=O (centres undefined) | 3 | i | 0.9 | -3.7 | / | / | 101
S=C(c1nc2ccccc2[nH]1)N1CCOCC1 | -4 | i | 0.92 | -1.6 | / | / | 100
COC(=O)c1ccc2c(=O)n(CCCCCC(=O)O)c(=O)[nH]c2c1 | -7 | i | 1.1 | -3.6 | 36 | 110 | 101
CC1=CCC2C(=O)N(CCc3c[nH]c4ccccc34)C(=O)C2C1 (centres undefined) | -2 | i | 0.9 | -0.9 | -57 | 79 | 110
CC(C)C(NS(=O)(=O)c1ccc2c(c1)OCCO2)C(=O)NCCc1ccccn1 (centres undefined) | -10 | i | 0.97 | -0.4 | / | / | 108
O=C(CC1Sc2ncnn2C1=O)Nc1ccc(Cl)cc1 (centres undefined) | 1 | i | 1.1 | / | / | / | 34
O=C(CN1CCN(c2ccccc2)CC1)Nc1ccccc1Cl | -2 | i | 0.99 | / | -11 | 105 | 106
O=C(COC(=O)c1cc(=O)c2ccccc2o1)Nc1ccc2ccccc2c1 | -8 | i | 1 | -0.8 | 36 | 118 | 33
CC1(C)C(=O)Nc2ccccc2N1C(=O)COC(=O)c1cc(S(=O)(=O)N2CCOCC2)ccc1F | -8 | i | 0.93 | / | / | / | 97
Cn1nnc2cc(NC(=O)NCc3ccc4c(c3)OCO4)ccc21 | -2 | i | 0.85 | -3.1 | 69 | 125 | 95
COC(=O)C1(c2ccccc2)NC(c2ccc(O)cc2)C2C(=O)N(c3ccc4c(c3)OCO4)C(=O)C21 (centres undefined) | / | i | 1.1 | / | / | / | 102
O=C(CCN1C(=O)c2cccnc2C1=O)NC1CCCCCC1 | -6 | i | 0.99 | 0.6 | -118 | 53 | 107
O=C(Nc1ccccc1N1CCCC1)c1ccc([N+](=O)[O-])cc1Cl | -6 | i | 1.1 | / | / | / | 97
O=C(NCCN1Cc2ccccc2C1=O)c1cccs1 | -9 | i | 0.83 | -1.9 | / | / | 101
Cc1cc(C)nc(N2CCC(C(=O)NCc3ccccc3F)CC2)n1 | -11 | i | 0.94 | / | / | / | 105
COc1ccc(-n2nnnc2SCC(=O)Nc2ccccc2N2CCOCC2)cc1OC | 1 | i | 0.99 | / | -57 | 55 | 103
Cc1ccccc1NS(=O)(=O)c1ccc(C)c(NS(C)(=O)=O)c1C | 1 | i | 1.1 | / | -25 | 91 | 101
O=C(CSc1nc(-c2ccccc2)nc2ccc(F)cc12)Nc1cccc(C(=O)O)c1 | / | i | 0.99 | / | / | / | 103
Cc1ccc(Sc2c([N+](=O)[O-])c(C)nn2C)cc1 | / | i | 1.1 | / | / | / | 101
CCC(=O)Nc1ccc(C(=O)N/N=C/c2cccnc2)cc1 | -3 | i | 0.96 | -2.6 | / | / | 96
O=C(c1ccco1)N1CCN(S(=O)(=O)c2ccc3c(c2)OCCO3)CC1 | -7 | i | 0.98 | -2.5 | / | / | 95
C=CCSC1=C(C#N)C(c2cc(Br)c(O)c(OC)c2)CC(=O)N1 (centres undefined) | -4 | i | 0.83 | -2.4 | / | / | 90
CCOC(=O)C1=C(Cc2ccc(Cl)cc2)C(=O)c2ccccc2C1=O | -8 | / | / | -1.6 | -50 | 99 | 77
O=C(Cc1c[nH]c2ccccc12)NCc1cccs1 | -5 | i | 0.97 | -0.6 | / | / | 74
O=C(NCc1cccnc1)Nc1ccccc1F | 2 | i | 0.97 | -0.3 | 20 | 91 | 109
O=C(CSc1nc2ccccc2[nH]1)Nc1ccccc1N1CCOCC1 | -4 | i | 0.83 | 1.6 | 53 | 86 | 108
CS(=O)(=O)N(Cc1nc2sc3c(c2c(=O)[nH]1)CCCC3)C1CCCCC1 | 0 | i | 0.95 | 0.9 | -27 | 67 | /
CCCC(=O)OCCn1c(Br)nc2c1c(=O)[nH]c(=O)n2C | -5 | i | 0.81 | -1.2 | -8 | 210 | 102
COc1ccc2[nH]c(=O)c(CN(c3ccc(C)c(C)c3)S(C)(=O)=O)cc2c1 | 0 | i | 0.9 | / | / | / | 102
COC(=O)CC1=NN(c2ccc(OC)cc2)C(=O)/C1=C\c1ccc(Cl)cc1 | 8 | i | 1 | -0.8 | / | / | 96
Cc1cc(C)nc(NS(=O)(=O)c2ccc(NC(=O)Nc3ccccc3)cc2)n1 | 4 | i | 1 | / | -75 | 63 | 103
CCOCc1nnc(NC(=O)CSc2ccc(C)cc2)s1 | -2 | i | 0.94 | -1.0 | -357 | 55 | 107
CC(C)NC(=O)COC(=O)c1ccc(O)cc1 | 0 | / | / | -1.2 | / | / | 103
Cc1cc(C)n(CC(O)COc2ccccc2C)n1 (centres undefined) | -6 | i | 0.89 | / | / | / | 113
CNC(=O)c1c(Cl)cnn1-c1ccccc1 | -3 | i | 0.93 | / | / | / | 96
CCOCCCNC(=O)C(NC(=O)CNC(C)=O)c1ccc(Cl)cc1 (centres undefined) | -3 | i | 0.91 | -4.8 | 7 | 83 | 97
Cc1ccsc1CN1CCC(C(=O)NCc2ccccc2Cl)CC1 | 7 | / | / | 0.5 | 17 | 63 | 100
CCOC(=O)c1cnc(-n2nc(C)cc2C)nc1NC | -2 | i | 0.81 | -1.1 | / | / | 65
CCN=C1SC(CC(=O)NCCc2ccc(OC)c(OC)c2)C(=O)N1CC (centres undefined) | -7 | i | 0.96 | -0.5 | 0 | 165 | 103
Cc1cccc2c3nc4ccccc4nc3n(CCCN3C(=O)c4ccccc4C3=O)c12 | -6 | / | / | -0.3 | / | / | 102
Cc1ccccc1NC1=C(Cl)C(=O)OC1OC(C)C (centres undefined) | -4 | i | 0.99 | -1.1 | / | / | 101
Cc1nn2c(-c3ccncc3)ccnc2c1Cl | -5 | i | 0.95 | / | 4 | 132 | 93
CCCn1nnnc1NC(=O)c1ccc(C)cc1Cl | -8 | i | 1 | -2.4 | -18 | 72 | 97
O=C(CC1Oc2ccccc2NC1=O)NCCCN1CCCC1=O (centres undefined) | -1 | i | 0.92 | -2.7 | / | / | 56
OCCCCNCc1ccc(OCc2ccc(Cl)cc2Cl)cc1 | -7 | i | 0.7 | 0.2 | 20 | 39 | 96
CC(=O)c1c(C)[nH]c(C(=O)NCCc2ccc(Cl)cc2)c1C | -5 | i | 0.94 | / | / | / | 98
Cc1ccc(C)c(NC(=O)CCN2CC(C)OC(C)C2)c1 (centres undefined) | 1 | i | 0.91 | -2.7 | / | / | 102
Cc1nn(-c2ccccc2)c(C)c1/C=N/NC(=O)c1cnccn1 | / | i | 1.1 | / | / | / | 101
Cc1ccc(-c2[nH]c3ccccc3c2C(C[N+](=O)[O-])c2ccco2)cc1 (centres undefined) | -15 | i | 1 | -0.5 | 50 | 80 | 101
O=C(CSCc1ccccc1)N/N=C/c1cc2c(cc1Br)OCO2 | -9 | i | 0.97 | -1.4 | 0 | 102 | 97
O=C(Cn1c(=O)oc2cc(S(=O)(=O)N3CCc4ccccc43)ccc21)NC1CCCC1 | 3 | i | 1.1 | -2.0 | / | / | 109
